eIF4H FP inh = inhibitors of RNA binding by human eIF4H. Q15056. eIF4H fluorescence polarization binding assay. inhibition, % at 35 µM. hit rate 0.94% among 290,000;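 active = 50% or more with normal probe brightness, or confirmed in later tests; inconclusive = above 50% with abnormal brightness, or retests that disagree; inactive = below 50% or failed in later tests; about a fifth of its hits are not listed in these tables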;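 also: calls also rest on retests at 20 µM and on dose response follow-up; 0% = protein and probe with vehicle and 100% = probe without protein; strong numbers were not always called active; many hits fall short of the cut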
PABP FP inh = blocks human PABP binding to poly(A) RNA; fluorescence polarization; hit rate 1% among 290,000; inhibition, % at 35 µM; AID 2014;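 active = 50% or more with normal probe brightness, or confirmed in later tests; inconclusive = above 50% with abnormal brightness, or retests that disagree; inactive = below 50% or failed in later tests; about a fifth of its hits are not listed in these tables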;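 also: calls also rest on retests at 20 µM and on dose response follow-up; controls were probe without protein and protein plus probe with vehicle; some compounds called inactive have numbers as strong as hits; many hits fall short of the cut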
Target sequence (P11940 whole entry, looked up): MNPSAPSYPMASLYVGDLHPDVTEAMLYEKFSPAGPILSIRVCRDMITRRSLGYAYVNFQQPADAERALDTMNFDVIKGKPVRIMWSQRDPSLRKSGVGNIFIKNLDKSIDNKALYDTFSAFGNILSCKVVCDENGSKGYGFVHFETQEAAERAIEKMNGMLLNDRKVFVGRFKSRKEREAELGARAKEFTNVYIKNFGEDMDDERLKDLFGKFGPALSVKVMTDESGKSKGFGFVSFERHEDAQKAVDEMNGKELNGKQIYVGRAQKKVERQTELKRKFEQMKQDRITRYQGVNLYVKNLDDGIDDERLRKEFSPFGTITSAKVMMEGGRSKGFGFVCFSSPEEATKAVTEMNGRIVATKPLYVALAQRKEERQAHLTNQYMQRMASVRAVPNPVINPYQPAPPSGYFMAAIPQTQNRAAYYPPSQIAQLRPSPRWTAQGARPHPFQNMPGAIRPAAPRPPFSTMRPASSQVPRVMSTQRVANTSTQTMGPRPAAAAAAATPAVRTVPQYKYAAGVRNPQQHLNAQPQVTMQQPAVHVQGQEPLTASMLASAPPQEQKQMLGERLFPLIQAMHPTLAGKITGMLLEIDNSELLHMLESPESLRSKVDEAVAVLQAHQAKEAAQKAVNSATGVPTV
Rce1 inh = yeast Ras-converting enzyme inhibition. Q03530. calls only. yeast membranes, quenched prenylated peptide cleavage fluorescence. hit rate 0.27% among 290,000;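 active = fall in fluorescence gain of 50% or more versus controls, with final raw signal at or below 3038400; inconclusive = same 50% fall but final raw signal above 3038400; inactive = fall in fluorescence gain under 50%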;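 also: plate controls were neutral control wells for no effect and wells lacking membranes for full effect; tested at 10 µM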
HIV Env fusion = inhibitors of HIV Env-mediated cell fusion. HeLa-JRFL Env/CEM21 cell fusion, luciferase. inhibition, % at 12.3 µM. hit rate 1.1% among 360,000;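 active = mean replicate inhibition score of at least 50 and every replicate individually at or above 50; inconclusive = only one of the two criteria met; inactive = mean below 50 and not all replicates reaching 50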;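 also: 0% = plate neutral controls and 100% = maraviroc near 300 nM; one replicate is shown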
CSC inhib = blocks cancer stem cells | cancer stem cell-like cells viability, luminescence | inhibition, % at 7.5 µM | hit rate 1.1% among 300,000 | AID 2717;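 active = mean at 75% or more and at least half the replicates too; inconclusive = mean and replicates disagree; tested in HMLE shEcad cells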;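 also: 0% = median of negative and 100% = median of positive control wells; the first replicate is given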
Yeast UUG start = alters start codon recognition fidelity in yeast; hit rate 0.13% among 350,000; S. cerevisiae UUG-firefly luciferase reporter, luminescence/redox ratio; activity score, % at 18.7 µM;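 active = replicate mean at a twofold rise or more, about +100% in these data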;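 also: firefly luciferase made from a UUG start codon reports start codon fidelity; reporter light over untreated wells divided by growth signal over untreated wells; some hits fall short of that in this replicate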
MT1-MMP act inh = blocks activation of human MT1-MMP | hit rate 0.061% among 360,000 | GFP/RFP ratio change, % at 20 µM | HT1080 RFP-PRO-GFP cells, GFP/RFP ratio fluorescence, overnight; percent of plate control window, DMSO zero | P50281 | AID 651647;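 active = GFP/RFP ratio change of at least 30% with cell ATP level not reduced by more than half and red fluorescence within 50% of control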; also: strong numbers were not always called active
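system = RFP-PRO-GFP reporter HT1080 cells | dosing = 20 µM single dose, 1% DMSO | timing = overnight cell settling, then overnight compound exposure, 37 °C, 5% CO2 | read-out basis = GFP/RFP fluorescence ratio | controls = DMSO and RFP-L50D-GFP cell wells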
eIF4H FP inh retest = second read-out of eIF4H FP inh, no call of its own (marks repeat the call); inhibition, %; compound at 20 µM; confirmation average;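 mean of two retest wells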
PABP FP inh retest = further read-out of PABP FP inh, marked with its call; inhibition, %; compound at 20 µM; confirmation repeats;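 mean of two retest wells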
MT1-MMP act inh RFP = recorded beside MT1-MMP act inh, whose call it bears; RFP signal change, %; measured here: RFP expression control read;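 0 = vehicle wells; hits needed this value within 50% of zero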
Starred values were filed as active, the others as inactive; ! = not active in a repeat. Some of the compounds tested, so the mix of outcomes need not match the whole.

How did COc1ccc(CCNC(=O)CSc2nnc3c(n2)[nH]c2ccc(F)cc23)cc1OC do in these assays?
eIF4H FP inh: 84; PABP FP inh: -4; Rce1 inh: inactive; HIV Env fusion: -8; CSC inhib: 2; Yeast UUG start: -9; MT1-MMP act inh: -2; eIF4H FP inh retest: -3; PABP FP inh retest: -4; MT1-MMP act inh RFP: -1

How did CCN(CC)S(=O)(=O)c1ccc(N2CCOCC2)c(NC(=O)c2ccccc2)c1 do in these assays?
eIF4H FP inh: -3; PABP FP inh: -9; Rce1 inh: inactive; CSC inhib: -7; MT1-MMP act inh: 0; MT1-MMP act inh RFP: -5

Results for O=C(CCC(=O)Nc1ccccc1)NNC(=O)c1ccco1 ?
eIF4H FP inh: 2; PABP FP inh: 3; Rce1 inh: inactive; HIV Env fusion: -43; CSC inhib: -1; Yeast UUG start: 2; MT1-MMP act inh: 3; MT1-MMP act inh RFP: 7

What do the screens show for `O=C(NCCc1cccc(F)c1)C1CCCN(c2nc3ccccc3s2)C1` (stereo not drawn)?
eIF4H FP inh: 0; PABP FP inh: -1; Rce1 inh: inactive; HIV Env fusion: 12; CSC inhib: -5; Yeast UUG start: -8; MT1-MMP act inh: -4; MT1-MMP act inh RFP: -2

What do the screens show for `Cc1ncc([N+](=O)[O-])n1CC(C)O` (stereo not drawn)?
eIF4H FP inh: inconclusive; PABP FP inh: 3.9*!; Rce1 inh: inactive; HIV Env fusion: 0; Yeast UUG start: -1; MT1-MMP act inh: 2; eIF4H FP inh retest: -4; PABP FP inh retest: 63*!; MT1-MMP act inh RFP: 4

How did O=C(Nc1cccc(S(=O)(=O)N2CCCCC2)c1)c1cncc(Br)c1 do in these assays?
HIV Env fusion: 3; CSC inhib: -3; Yeast UUG start: -11; MT1-MMP act inh: 10; MT1-MMP act inh RFP: -7

How did Cc1cc(C(=O)N/N=C/c2ccc(Br)o2)n[nH]1 do in these assays?
eIF4H FP inh: -4; PABP FP inh: 7; Rce1 inh: inactive; HIV Env fusion: -7; CSC inhib: -2; Yeast UUG start: -10; MT1-MMP act inh: -2; MT1-MMP act inh RFP: -1

What do the screens show for `CC(=O)SC1CC(=O)N(c2ccc(C(C)(C)C)cc2)C1=O` (stereo not drawn)?
eIF4H FP inh: -8; PABP FP inh: 0; Rce1 inh: inactive; HIV Env fusion: -21; CSC inhib: 1; Yeast UUG start: -25; MT1-MMP act inh: -2; MT1-MMP act inh RFP: -1

Results for CCCn1nc(CC(=O)OCC)c2ccccc2c1=O ?
eIF4H FP inh: -2; PABP FP inh: -2; HIV Env fusion: -154; CSC inhib: 0; Yeast UUG start: -21; MT1-MMP act inh: -2; MT1-MMP act inh RFP: 1

What do the screens show for `COc1ccc(CCn2c(=N)c(C(=O)NC3CCCC3)cc3c(=O)n4ccccc4nc32)cc1OC`?
eIF4H FP inh: -7; PABP FP inh: -9; Rce1 inh: inactive; HIV Env fusion: 6; CSC inhib: -17; Yeast UUG start: -16; MT1-MMP act inh: -12; MT1-MMP act inh RFP: -2

How did O=C1OCCC1Sc1nnc(-c2cccc(Br)c2)o1 (stereo not drawn) do in these assays?
eIF4H FP inh: -11; PABP FP inh: -6; Rce1 inh: inactive; HIV Env fusion: -28; Yeast UUG start: -8; MT1-MMP act inh: 1; MT1-MMP act inh RFP: 2

Results for CC(C)(C)NC(=O)CSC(=Nc1ccc(F)cc1)NC#N ?
eIF4H FP inh: -8; PABP FP inh: 1; Rce1 inh: inactive; HIV Env fusion: -10; CSC inhib: 6; Yeast UUG start: -51; MT1-MMP act inh: -25; MT1-MMP act inh RFP: 4

Results for CC(NC(=O)CCN1C(=O)c2ccccc2S1(=O)=O)c1ccccc1 (stereo not drawn) ?
Rce1 inh: inactive; HIV Env fusion: 10; CSC inhib: -3; Yeast UUG start: -11; MT1-MMP act inh: -2; MT1-MMP act inh RFP: 2

How did C/C(=N\NC(=O)c1cc(-c2ccccc2C)nc2ccccc12)c1cccnc1 do in these assays?
eIF4H FP inh: -7; PABP FP inh: 0; Rce1 inh: inactive; CSC inhib: 0; Yeast UUG start: -12; MT1-MMP act inh: -6; MT1-MMP act inh RFP: -2

Results for COC(=O)c1c(C)nc(C)c2c(=O)oc3ccccc3c12 ?
eIF4H FP inh: -5; PABP FP inh: -2; Rce1 inh: inactive; CSC inhib: 0; Yeast UUG start: -13; MT1-MMP act inh: 0; MT1-MMP act inh RFP: 1

How did CC(=O)O[C@]1(C(C)=O)CC[C@H]2[C@@H]3C=C(Cl)C4=CC(=O)CC[C@]4(C)[C@H]3CC[C@@]21C do in these assays?
eIF4H FP inh: 0; PABP FP inh: 5; Rce1 inh: inactive; HIV Env fusion: -226; CSC inhib: 10; Yeast UUG start: 8; MT1-MMP act inh: -5; MT1-MMP act inh RFP: -6

What do the screens show for `Cc1ccc(S(=O)(=O)N/N=C/c2ccccc2F)cc1[N+](=O)[O-]`?
eIF4H FP inh: 0; PABP FP inh: 10; Rce1 inh: inactive; HIV Env fusion: -9; CSC inhib: 2; Yeast UUG start: -15; MT1-MMP act inh: -3; MT1-MMP act inh RFP: -3

How did COC(CN(C(=O)CCl)C(C(=O)NC1CCCC(C)C1C)c1ccc(C)cc1)OC (stereo not drawn) do in these assays?
eIF4H FP inh: -5; PABP FP inh: -8; Rce1 inh: inactive; Yeast UUG start: 1; MT1-MMP act inh: -2; MT1-MMP act inh RFP: 4

What do the screens show for `CCc1nnc(NC(=O)c2cccnc2)s1`?
eIF4H FP inh: 0; PABP FP inh: -8; Rce1 inh: inactive; CSC inhib: 0; MT1-MMP act inh: 0; MT1-MMP act inh RFP: 5

What do the screens show for `O=C(Nc1ccc(F)c(F)c1)C1CCCCC1`?
HIV Env fusion: -26; CSC inhib: -5; Yeast UUG start: -14; MT1-MMP act inh: 4; MT1-MMP act inh RFP: -2

Results for CCCSc1oc(-c2ccco2)nc1S(=O)(=O)c1ccc(C)cc1 ?
eIF4H FP inh: 8; PABP FP inh: 9; Rce1 inh: inactive; HIV Env fusion: 0; CSC inhib: -2; Yeast UUG start: -19; MT1-MMP act inh: -3; MT1-MMP act inh RFP: -1

Results for O=C(Nc1ccc(S(=O)(=O)Nc2ccccn2)cc1)c1ccccc1 ?
eIF4H FP inh: -9; PABP FP inh: -7; Rce1 inh: inactive; HIV Env fusion: 6; CSC inhib: 4; Yeast UUG start: -11; MT1-MMP act inh: 2; MT1-MMP act inh RFP: -4

What do the screens show for `CCN(CC)S(=O)(=O)c1ccc(C)c(NC(=O)CSc2nc3ccccc3[nH]2)c1`?
eIF4H FP inh: -5; PABP FP inh: -8; Rce1 inh: inactive; HIV Env fusion: 12; CSC inhib: -2; Yeast UUG start: 3; MT1-MMP act inh: 0; MT1-MMP act inh RFP: -1

How did O=S(=O)(Nc1ccc(F)cc1)N1CCOCC1 do in these assays?
eIF4H FP inh: 3; PABP FP inh: 5; Rce1 inh: inactive; HIV Env fusion: -9; CSC inhib: 0; MT1-MMP act inh: -5; MT1-MMP act inh RFP: 0

Results for O=C(COC(=O)c1c[nH]c(=O)[nH]c1=O)Nc1ccccc1Br ?
eIF4H FP inh: -4; PABP FP inh: 5; Rce1 inh: inactive; HIV Env fusion: -3; CSC inhib: -1; Yeast UUG start: -12; MT1-MMP act inh: 0; MT1-MMP act inh RFP: 0

Results for CC(C)C(NC(=O)c1ccco1)C(=O)OCC(=O)Nc1ccc(C(N)=O)cc1 (stereo not drawn) ?
eIF4H FP inh: 9; PABP FP inh: 6; Rce1 inh: inactive; HIV Env fusion: 12; CSC inhib: -4; MT1-MMP act inh: 2; MT1-MMP act inh RFP: 2

What do the screens show for `Nc1c(C(=O)NCC2CCCO2)c2nc3ccccc3nc2n1-c1ccccc1` (stereo not drawn)?
eIF4H FP inh: 0; PABP FP inh: -11; Rce1 inh: inactive; CSC inhib: 0; Yeast UUG start: -4; MT1-MMP act inh: 6; MT1-MMP act inh RFP: -5

How did COc1cc(/C=C2\SC(=S)NC2=O)ccc1OS(=O)(=O)c1ccccc1 do in these assays?
eIF4H FP inh: 13; PABP FP inh: 7; Rce1 inh: inactive; CSC inhib: 97*

What do the screens show for `CC(=O)c1cccc(OCc2cc(C(=O)N3C[C@H]4CC[C@H]3C4)no2)c1`?
eIF4H FP inh: -12; PABP FP inh: 0; Rce1 inh: inactive; HIV Env fusion: -13; Yeast UUG start: -14; MT1-MMP act inh: 2; MT1-MMP act inh RFP: 0

Results for O=C(COc1ccccc1)NCC(=O)N/N=C/c1ccc(Cl)cc1 ?
eIF4H FP inh: -13; PABP FP inh: -10; Rce1 inh: inactive; HIV Env fusion: -215; CSC inhib: 4; Yeast UUG start: -12; MT1-MMP act inh: 0; MT1-MMP act inh RFP: 2

How did O=C(CCS(=O)(=O)c1cc2c(cc1Cl)NC(=O)CO2)NCc1ccccc1 do in these assays?
eIF4H FP inh: -1; PABP FP inh: 0; Rce1 inh: inactive; HIV Env fusion: -18; CSC inhib: 1; Yeast UUG start: -23; MT1-MMP act inh: 2; MT1-MMP act inh RFP: 7

Results for COc1ccc(OC)c(C2Nc3ccccc3NC3=C2C(=O)CC(C)(C)C3)c1 (stereo not drawn) ?
eIF4H FP inh: inconclusive; PABP FP inh: 39; Rce1 inh: inactive; HIV Env fusion: 8; CSC inhib: -20; Yeast UUG start: -22; MT1-MMP act inh: -1; MT1-MMP act inh RFP: -2

What do the screens show for `CCCNC(=O)NC(=O)CSc1ncc(C(F)(F)F)cc1Cl`?
eIF4H FP inh: 11; PABP FP inh: 9; Rce1 inh: inactive; CSC inhib: -11; Yeast UUG start: -6; MT1-MMP act inh: 3; MT1-MMP act inh RFP: 0

How did CCNc1ccc(S(=O)(=O)NCCN(C)C)cc1[N+](=O)[O-] do in these assays?
eIF4H FP inh: 6; PABP FP inh: 3; Rce1 inh: inactive; HIV Env fusion: -4; CSC inhib: -4; MT1-MMP act inh: 2; MT1-MMP act inh RFP: 3

What do the screens show for `Fc1ccccc1NC(=S)N(CCN1CCCCC1)Cc1ccco1`?
eIF4H FP inh: -7; PABP FP inh: -5; Rce1 inh: inactive; HIV Env fusion: -2; CSC inhib: 5; MT1-MMP act inh: -1; MT1-MMP act inh RFP: 3

How did CC1(C)Cc2ccccc2C(/C(=N\Nc2cccc(Cl)c2)C(N)=O)=N1 do in these assays?
eIF4H FP inh: 5; PABP FP inh: 2; Rce1 inh: inactive; HIV Env fusion: 82*; CSC inhib: 44; MT1-MMP act inh: 0; MT1-MMP act inh RFP: -16

How did O=C(Nc1ccc2c(c1)OCO2)c1cc(C2CCCN(C(=O)CCc3ccccc3)C2)on1 (stereo not drawn) do in these assays?
HIV Env fusion: -19; Yeast UUG start: -1; MT1-MMP act inh: -8; MT1-MMP act inh RFP: -2

What do the screens show for `CCCCOC(=O)Nc1ccc(S(=O)(=O)Nc2onc(C)c2C)cc1`?
eIF4H FP inh: -2; PABP FP inh: 1; Rce1 inh: inactive; HIV Env fusion: -6; CSC inhib: 3; Yeast UUG start: -4; MT1-MMP act inh: 0; MT1-MMP act inh RFP: -2

What do the screens show for `O=C1C(=NO)CCc2ccccc21`?
HIV Env fusion: 26; Yeast UUG start: 24; MT1-MMP act inh: -4; MT1-MMP act inh RFP: 8

Compound activity from PubChem.
